MT1-MMP act inh: blocks activation of human MT1-MMP; hit rate 0.061% among 360,000; GFP/RFP ratio change, % at 20 µM; HT1080 RFP-PRO-GFP cells, GFP/RFP ratio fluorescence, overnight; percent of plate control window, DMSO zero; AID 651647;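 active = GFP/RFP ratio change of at least 30% with cell ATP level not reduced by more than half and red fluorescence within 50% of control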; note: strong numbers were not always called active
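Assay system – RFP-PRO-GFP reporter HT1080 cells · Compound dosing – single dose of 20 µM compound, 1% DMSO final · Incubation – overnight compound exposure at 37 °C · Measure – GFP/RFP fluorescence ratio · Benchmarks – DMSO wells and RFP-L50D-GFP cells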
UUG fidelity: alters start codon recognition fidelity in yeast; S. cerevisiae UUG-firefly luciferase reporter, luminescence/redox ratio; activity score, % at 18.7 µM; hit rate 0.13% among 350,000; AID 602363;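 active = replicate mean at a twofold rise or more, about +100% in these data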;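 note: firefly luciferase made from a UUG start codon reports start codon fidelity; reporter light over untreated wells divided by growth signal over untreated wells; some hits fall short of that in this replicate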
PABP FP inh: PABP-poly(A) binding inhibition; P11940; PABP-poly(A) RNA binding, fluorescence polarization; inhibition, % at 35 µM; hit rate 1% among 290,000; AID 2014;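 active = 50% or more with normal probe brightness, or confirmed in later tests; inconclusive = above 50% with abnormal brightness, or retests that disagree; inactive = below 50% or failed in later tests; about a fifth of its hits are not listed in these tables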;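 note: calls also rest on retests at 20 µM and on dose response follow-up; controls were probe without protein and protein plus probe with vehicle; some compounds called inactive have numbers as strong as hits; many hits fall short of the cut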
Target sequence (P11940 whole entry, looked up): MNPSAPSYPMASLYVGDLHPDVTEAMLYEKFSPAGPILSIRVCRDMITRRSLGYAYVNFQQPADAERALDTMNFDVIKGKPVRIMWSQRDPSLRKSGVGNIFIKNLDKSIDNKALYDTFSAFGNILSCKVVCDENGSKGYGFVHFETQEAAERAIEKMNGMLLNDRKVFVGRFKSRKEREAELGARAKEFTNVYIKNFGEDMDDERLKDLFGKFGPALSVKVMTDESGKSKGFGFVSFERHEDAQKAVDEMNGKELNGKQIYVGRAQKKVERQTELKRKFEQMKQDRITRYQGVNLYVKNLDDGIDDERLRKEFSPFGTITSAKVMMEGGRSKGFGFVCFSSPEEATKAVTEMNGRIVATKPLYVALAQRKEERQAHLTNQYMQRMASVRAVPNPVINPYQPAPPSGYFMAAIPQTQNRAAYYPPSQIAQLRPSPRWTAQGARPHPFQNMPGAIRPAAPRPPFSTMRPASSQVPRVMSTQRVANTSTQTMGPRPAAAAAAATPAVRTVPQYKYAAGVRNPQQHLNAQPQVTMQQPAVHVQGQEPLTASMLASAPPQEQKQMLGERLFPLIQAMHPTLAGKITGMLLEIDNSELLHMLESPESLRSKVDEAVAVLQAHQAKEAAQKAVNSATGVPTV
CSC inhib: cancer stem cell inhibition; inhibition, % at 7.5 µM; hit rate 1.1% among 300,000; cancer stem cell-like cells viability, luminescence;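 active = mean at 75% or more and at least half the replicates too; inconclusive = mean and replicates disagree; tested in HMLE shEcad cells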;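 note: 0% = median of negative and 100% = median of positive control wells; the first replicate is given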
HIV Env fusion: HIV envelope-mediated fusion inhibition; hit rate 1.1% among 360,000; AID 651610; HeLa-JRFL Env/CEM21 cell fusion, luciferase; inhibition, % at 12.3 µM;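 active = mean replicate inhibition score of at least 50 and every replicate individually at or above 50; inconclusive = only one of the two criteria met; inactive = mean below 50 and not all replicates reaching 50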;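 note: 0% = plate neutral controls and 100% = maraviroc near 300 nM; one replicate is shown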
eIF4H FP inh: inhibitors of RNA binding by human eIF4H | eIF4H fluorescence polarization binding assay | inhibition, % at 35 µM | hit rate 0.94% among 290,000;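 active = 50% or more with normal probe brightness, or confirmed in later tests; inconclusive = above 50% with abnormal brightness, or retests that disagree; inactive = below 50% or failed in later tests; about a fifth of its hits are not listed in these tables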;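 note: calls also rest on retests at 20 µM and on dose response follow-up; 0% = protein and probe with vehicle and 100% = probe without protein; strong numbers were not always called active; many hits fall short of the cut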
Rce1 inhib: yeast Ras-converting enzyme inhibition. yeast membranes, quenched prenylated peptide cleavage fluorescence. calls only. hit rate 0.27% among 290,000. AID 2563;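 active = fall in fluorescence gain of 50% or more versus controls, with final raw signal at or below 3038400; inconclusive = same 50% fall but final raw signal above 3038400; inactive = fall in fluorescence gain under 50%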;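 note: plate controls were neutral control wells for no effect and wells lacking membranes for full effect; tested at 10 µM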
Target sequence (Q03530 whole entry, looked up): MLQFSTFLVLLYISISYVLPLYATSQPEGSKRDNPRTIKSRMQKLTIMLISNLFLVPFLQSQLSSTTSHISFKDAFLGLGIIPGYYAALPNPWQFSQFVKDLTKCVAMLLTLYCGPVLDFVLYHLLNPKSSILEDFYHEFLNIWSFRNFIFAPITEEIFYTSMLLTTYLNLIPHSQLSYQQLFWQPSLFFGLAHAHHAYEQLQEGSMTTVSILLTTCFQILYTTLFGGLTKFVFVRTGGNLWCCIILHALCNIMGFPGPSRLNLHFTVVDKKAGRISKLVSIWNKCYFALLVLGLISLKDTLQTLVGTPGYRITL
PABP FP inh retest: recorded beside PABP FP inh, whose call it bears; inhibition, %; compound at 20 µM; confirmation repeats;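 mean of two retest wells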
MT1-MMP act inh RFP: second read-out of MT1-MMP act inh, no call of its own (marks repeat the call); RFP signal change, %; measured here: RFP expression control read;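 0 = vehicle wells; hits needed this value within 50% of zero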
* marks the source's active call; other numbers are inactive results; i = inactive; ? = inconclusive; . = no result given. The list is partial; the hit share may differ from the screen's.

SMILES | MT1-MMP act inh | MT1-MMP act inh RFP | UUG fidelity | PABP FP inh | CSC inhib | HIV Env fusion | eIF4H FP inh | Rce1 inhib | others
CCCn1c(NCc2c[nH]c3ccccc23)nc2ccccc21 | 9 | -5 | -11 | -8 | 3 | -59 | -3 | i
Cc1ccc(C2=CSC3=NCCN23)c(C)c1 | 1 | 3 | . | 10 | 30 | . | -3 | i
C/C(=N/NC(=O)c1ccc(C)nc1)c1ccc2c(c1)CCCC2 | 4 | 7 | . | 40 | 33 | -27 | 8 | i
CCOC(=O)c1c(NC(=O)COC(=O)c2nc(Cl)ccc2Cl)sc(C(=O)NC)c1C | -1 | -4 | -3 | . | 0 | -7 | . | i
Cc1cc(C)nc(NC(=O)COc2cc(Cl)cc(Cl)c2)n1 | 7 | 0 | -5 | -8 | -14 | -76 | -3 | i
COc1ccccc1Oc1nnnn1-c1ccc(C(N)=O)cc1 | 0 | -2 | -6 | 3 | -3 | . | -3 | i
O=C(COc1ccccc1F)Nc1ccc2c(c1)OCCO2 | 14 | -1 | . | -8 | -17 | -46 | -3 | i
CC(C)CC(=O)Nc1ccc(C(=O)COC(=O)Cc2n[nH]c(=O)c3ccccc23)cc1 | -2 | 3 | -16 | . | -24 | -7 | . | .
Cc1cc(=O)oc2c(C)c(OCC(=O)NC3CCN(Cc4ccccc4)CC3)ccc12 | 1 | 0 | 7 | 2 | -7 | -15 | -1 | i
O=C(CN1CCN(S(=O)(=O)c2ccc(Cl)cc2)CC1)NC(=O)NC1CCCCC1 | 1 | -7 | -1 | 5 | -8 | -11 | 4 | i
Cc1ccc(C(=O)NC2CCN(CC(=O)Nc3c(C)cc(C)cc3C)CC2)cc1 | 8 | 4 | -7 | 6 | -10 | -78 | -5 | i
O=C(O)c1cc2ncc(CCO)cn2n1 | 4 | 7 | . | 5 | 10 | 2 | 13 | i
COC(=O)c1ccc(S(=O)(=O)c2ccc([N+](=O)[O-])cc2)cc1 | 0 | 1 | -14 | -5 | -10 | -21 | -10 | i
CC(=O)OCC(=O)C12OC(C)(C)OC1CC1C3CC=C4CC(O)CCC4(C)C3CCC12C (centres undefined) | 7 | -3 | -8 | . | . | 5 | . | .
O=C(CCN1CCOCC1)N/N=C/c1cc(Br)cc(Br)c1O | -2 | 2 | -24 | 11 | 4 | 20 | 2 | i
CCOC(=O)C1CCCN(C(=O)c2ccc(S(=O)(=O)Nc3ccccc3OC)cc2)C1 (centres undefined) | 4 | -5 | -6 | . | . | -12 | . | .
CCOC(=O)/C=C(\C)N1N=C(c2ccccc2)CC1c1ccccc1 (centres undefined) | -2 | 4 | . | 1 | 4 | -1 | -1 | i
CCOc1ncccc1C(=O)OCC(=O)Nc1cccc(C(C)=O)c1 | 7 | 2 | -4 | 14 | -7 | -27 | 5 | i
COC(=O)[C@@H](NCc1ccc(OC)c(B(O)O)c1)C(C)C | 0 | 4 | -25 | . | . | -27 | . | .
Cc1cc(C(=O)Nc2cc(S(C)(=O)=O)ccc2Cl)c(C)o1 | 1 | 0 | -8 | . | -11 | -12 | . | .
O=C(COC(=O)c1nc(Cl)ccc1Cl)NCc1ccc(Cl)cc1 | 0 | 4 | -5 | . | -11 | . | . | .
CCn1nnnc1NCc1ccc(OCc2c(F)cccc2Cl)c(OC)c1 | -1 | -3 | . | -4 | 11 | 14 | -2 | i
CC(=O)Nc1ccc(S(=O)(=O)N2CCN(c3nc4ccccc4n3CC(C)C)CC2)cc1 | -6 | -4 | -2 | 4 | -6 | 17 | -2 | i
COc1ccc(-c2ccnc3nc(Sc4ncc(C(F)(F)F)cc4Cl)nn23)cc1 | 2 | -12 | 9 | 10 | 2 | . | -5 | ?

Looked up by compound from the entries so far, 3 records:
SMILES | MT1-MMP act inh | MT1-MMP act inh RFP | UUG fidelity | PABP FP inh | CSC inhib | HIV Env fusion | eIF4H FP inh | Rce1 inhib | others
O=C(CCN1CCOCC1)N/N=C/c1cc(Br)cc(Br)c1O | -2 | 2 | -24 | 11 | 4 | 20 | 2 | i
CCOc1ncccc1C(=O)OCC(=O)Nc1cccc(C(C)=O)c1 | 7 | 2 | -4 | 14 | -7 | -27 | 5 | i
COC(=O)c1ccc(S(=O)(=O)c2ccc([N+](=O)[O-])cc2)cc1 | 0 | 1 | -14 | -5 | -10 | -21 | -10 | i

Further compounds
SMILES | MT1-MMP act inh | MT1-MMP act inh RFP | UUG fidelity | PABP FP inh | CSC inhib | HIV Env fusion | eIF4H FP inh | Rce1 inhib | others
Cc1ccc(S(=O)(=O)N2CCN(C(=O)C3CCCO3)CC2)cc1C (centres undefined) | -2 | -1 | 15 | -6 | -1 | . | -14 | i
O=C(C1=C[C@@H](c2coc3ccccc3c2=O)C[C@@H](OCc2ccc(CO)cc2)O1)N1CCOCC1 | 0 | 1 | -11 | 6 | 9 | 20 | 2 | i
O=C(N/N=C/C=C/c1ccccc1[N+](=O)[O-])c1cc(-c2ccccc2)n[nH]1 | 1 | -4 | . | 3 | 13 | 3 | -8 | i
CN(Cc1ccccc1)C(=O)c1nc2ccccn2c1CN1CCc2sccc2C1 | -5 | -1 | -2 | -6 | -5 | 4 | -3 | i
CCc1cc(=O)oc2cc(OCC(=O)N3CC[C@@]4(O)CCCC[C@H]4C3)ccc12 | 2 | 1 | -7 | -6 | -4 | . | -10 | .
CCOC(=O)Cc1nnc(NC(=O)CCc2ccccc2)s1 | -3 | -1 | . | -5 | 12 | -3 | -3 | i
COc1ccc(-c2csc(NC(=S)NC(=O)c3ccco3)n2)cc1 | 8 | 7 | . | -3 | -6 | -16 | -4 | i
CN(Cc1c(F)cccc1Cl)S(=O)(=O)c1cccs1 | 2 | 1 | -8 | 2 | -10 | 2 | 6 | i
CCCOc1ccc(/C=N/NC(=O)C2CC2)c(OCCC)c1 | 3 | 2 | -11 | -9 | -16 | 15 | -12 | i
O=C(N/N=C/c1cccc(Oc2ccccc2)c1)c1cc[n+]([O-])cc1 | 0 | 2 | . | -16 | -8 | -8 | 1 | i
COc1ccc(/C=N\NC(=O)c2cccc(Br)c2)c(OC)c1 | 0 | 4 | . | 5 | -7 | -6 | 0 | i
COc1ccc(CC(C)N2CCN(Cc3ccccc3)CC2)c(OC)c1 (centres undefined) | 4 | -3 | -8 | -2 | 41 | . | -7 | i
O=C(Nc1ccccc1)C1CC=CCC1C(=O)OCC1CCCO1 (centres undefined) | 2 | -1 | -18 | -2 | 3 | 20 | -10 | i
COc1cc(/C=N\Nc2ccc([N+](=O)[O-])cc2)ccc1OCC(=O)Nc1ccc(C)c(C)c1 | -107 | -1 | -24 | 55* | . | . | ? | i | PABP FP inh retest=58*
O=C(c1cccc(Oc2ccccc2)c1)N1CCOCC1 | 4 | 7 | 2 | -2 | 0 | 10 | 4 | i
O=C(NC1CCCc2ccccc21)C1CCN(C(=O)c2sccc2-n2cccc2)CC1 (centres undefined) | 0 | -4 | 6 | 9 | -7 | -1 | -4 | i
Cc1nnsc1C(=O)Nc1ccc(Cl)cc1 | 3 | -2 | -5 | 5 | 2 | -390 | -3 | .
Cc1ccc(-c2csc(Nc3ccc(C(=O)O)cc3)[n+]2Cc2ccccc2)cc1 | 1 | 2 | . | 1 | 41 | -21 | 17 | i
COc1ccc(NC(=O)O/N=C/c2ccccc2Cl)cc1 | 3 | 3 | . | -15 | 2 | -6 | -11 | .
CC1CCN(C(=O)c2cc3ccccc3cc2O)CC1 | -7 | -3 | -20 | 0 | -26 | . | 2 | i
CCOP(=O)(c1ccccc1)C(O)c1ccc(Br)cc1 (centres undefined) | 1 | 3 | . | 2 | -14 | 17 | 22 | i
CCOC(=O)CCc1c(C)c2ccc(OCC)c(C)c2oc1=O | . | . | . | 1 | -6 | -41 | 0 | i
O=C(Nc1sc2c(c1C(=O)O)CCC2)c1ccccc1F | -1 | 1 | -23 | 10 | 4 | 4 | -2 | i
COc1cccc(OCc2nnc(-c3cccs3)o2)c1 | -2 | 2 | -30 | 0 | -10 | 8 | -1 | i
CC(C)/C=C/C(=O)N1CCC(N2CCC(C(=O)N3CCOCC3)CC2)CC1 | 6 | 11 | . | -3 | 0 | 3 | 5 | i
COC(=O)CCSc1cc([N+](=O)[O-])cc2c1c(C1OCCS1)nn2-c1ccccc1 (centres undefined) | -3 | -6 | -13 | 17 | -1 | . | 11 | i
Cc1cccc(-c2onc3ccc(C4(C)OCCO4)cc23)c1 | -5 | -13 | 18 | 14 | 1 | 28 | -11 | i
CC(C)N(Cc1nc(-c2ccccc2)no1)C(=O)c1ccc(Br)o1 | 4 | 1 | 0 | -20 | 4 | . | -7 | i
Cc1nn2c(N3CCOCC3)cc(C(C)(C)C)nc2c1-c1ccccc1 | 1 | 0 | 4 | -3 | 2 | -7 | -8 | i
O=C(NCc1ccncc1)C1CCCN(S(=O)(=O)Cc2ccccc2)C1 (centres undefined) | -2 | 3 | -13 | 5 | 6 | 15 | 1 | i
OC(c1ccc(F)c(F)c1)c1nc(-c2cccc(C(F)(F)F)c2)cs1 (centres undefined) | 2 | 0 | -19 | . | . | -31 | . | .
CCOc1cc(C(=O)NC(C)C2CC3CCC2C3)cc(OCC)c1OCC (centres undefined) | 6 | 1 | -3 | . | -8 | -5 | . | i
N#Cc1ccc(OCC(=O)N/N=C2/CC(c3ccccc3)Oc3ccccc32)cc1 (centres undefined) | 3 | 4 | . | 5 | 10 | -6 | -1 | i
CCOC(=O)N1CCN(c2c(N3CC=C(c4ccccc4)CC3)c(=O)c2=O)CC1 | 0 | -1 | -3 | 6 | 7 | -3 | 3 | i
Cc1occc1C(=O)N/N=C/c1ccccc1[N+](=O)[O-] | 1 | -1 | -23 | 2 | -17 | -61 | 5 | i
Cc1ccc2c(C)c(C(=O)N(Cc3ccccc3)C3CCS(=O)(=O)C3)oc2c1 (centres undefined) | -7 | -8 | -13 | -3 | -7 | 16 | -9 | i
CC(C)(C)OC(=O)N1O[C@H]2C[C@@H]1[C@@H]1[C@@H]2N=NN1C12CC3CC(CC(C3)C1)C2 | 4 | 5 | -6 | . | . | -3 | . | .
Cc1ccc(-c2nc3cc(Br)cnc3nc2-c2ccc(C)cc2)cc1 | 1 | 1 | . | -4 | 57 | 15 | 10 | i
NC(=O)C1CCN(CCC(=O)Nc2ccc(F)c(F)c2)CC1 | 4 | 4 | 6 | 2 | 21 | 11 | 3 | i
CCn1c(-c2cccnc2Cl)nc2ccccc21 | -4 | 1 | -21 | -11 | 0 | 13 | 0 | i
CN(C)S(=O)(=O)c1ccc(N2CCOCC2)c(C(=O)O)c1 | 1 | 7 | -4 | 6 | -8 | 13 | 3 | i
Nc1cc2ccccc2oc1=O | 0 | 4 | -7 | -3 | 1 | . | 6 | i
Cc1nc(N2CCOCC2)c(C#N)c(C)c1Br | -2 | 4 | -15 | -3 | . | -140 | -4 | i
N=c1n(Cc2ccccc2)c2ccccc2n1CC(O)c1ccco1 (centres undefined) | -50 | 13 | -15 | 36 | 2 | . | 32 | i
Cc1ccccc1NC1=NC(=S)N(c2ccccc2)C12CCCCC2 | -5 | -2 | -17 | 20 | 8 | -23 | -6 | i
O=C(NNS(=O)(=O)c1ccc(Cl)cc1)c1cnn(-c2ccccc2)c1-n1cccc1 | -3 | 2 | 5 | 7 | -5 | -67 | 5 | .
C/C(=N\Nc1ncc(Cl)cc1Cl)c1ccc2c(c1)OCO2 | -2 | 3 | . | -11 | -2 | -22 | -8 | .
Cc1ccc(S(=O)(=O)Nc2ccc3c(c2)OCCO3)c(C)c1NS(C)(=O)=O | 7 | -10 | -2 | -7 | -15 | 1 | 13 | i
CCOc1ccc(C(=O)N/N=C/c2cc([N+](=O)[O-])cs2)cc1 | -2 | -4 | . | 4 | 21 | 12 | 9 | i
